Screening results deposited in PubChem BioAssay by several laboratories.
Rce1 inh – yeast Rce1p protease inhibitors, primary screen, biochemical, fluorescence, cell-free homogeneous; calls only; actives 0.27% (n = 290,000); yeast membranes, quenched prenylated peptide cleavage fluorescence; CAAX prenyl protease 2 (Saccharomyces cerevisiae (strain ATCC 204508 / S288c)), Q03530;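 active = fall in fluorescence gain of 50% or more versus controls, with final raw signal at or below 3038400; inconclusive = same 50% fall but final raw signal above 3038400; inactive = fall in fluorescence gain under 50%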;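 also: plate controls were neutral control wells for no effect and wells lacking membranes for full effect; tested at 10 µM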
Target sequence (Q03530 whole entry, looked up): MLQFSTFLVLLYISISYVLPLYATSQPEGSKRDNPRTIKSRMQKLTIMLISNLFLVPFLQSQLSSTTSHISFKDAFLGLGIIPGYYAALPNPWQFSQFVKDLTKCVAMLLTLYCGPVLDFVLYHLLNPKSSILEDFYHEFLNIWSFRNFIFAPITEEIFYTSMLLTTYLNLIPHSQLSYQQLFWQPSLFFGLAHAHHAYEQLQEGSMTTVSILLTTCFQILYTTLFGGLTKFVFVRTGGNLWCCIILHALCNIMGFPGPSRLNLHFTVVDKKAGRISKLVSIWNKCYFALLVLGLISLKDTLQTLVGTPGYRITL
MT1-MMP act inh – blockers of MT1-MMP proenzyme processing, primary screen, HT1080 RFP-PRO-GFP cells, GFP/RFP fluorescence; Matrix metalloproteinase-14 (Homo sapiens), P50281; AID 651647, 2012; actives 0.061% (n = 360,000); GFP/RFP ratio change, % at 20 µM; GFP/RFP ratio fluorescence, overnight; percent of plate control window, DMSO zero;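 active = GFP/RFP ratio change of at least 30% with cell ATP level not reduced by more than half and red fluorescence within 50% of control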; also: strong numbers were not always called active
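Read-out: GFP/RFP fluorescence ratio; Test system: RFP-PRO-GFP reporter HT1080 cells; Compound dosing: single-point 20 µM compound, 1% DMSO; Times: overnight compound exposure at 37 °C.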
CSC inhib – cancer stem cell viability inhibitors, primary screen, luminescence | inhibition, % at 7.5 µM | cancer stem cell-like cells viability | actives 1.1% (n = 300,000) | AID 2717, 2010;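 active = mean at 75% or more and at least half the replicates too; inconclusive = mean and replicates disagree; tested in HMLE shEcad cells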;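 also: 0% = median of negative and 100% = median of positive control wells; the first replicate is given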
Yeast UUG start – modulators of yeast start codon fidelity, primary screen, whole organism, S. cerevisiae, single point, plate reader | S. cerevisiae UUG-firefly luciferase reporter, luminescence/redox ratio | activity score, % at 18.7 µM | actives 0.13% (n = 350,000) | AID 602363, 2012;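 active = replicate mean at a twofold rise or more, about +100% in these data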;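 also: firefly luciferase made from a UUG start codon reports start codon fidelity; reporter light over untreated wells divided by growth signal over untreated wells; some hits fall short of that in this replicate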
PABP FP inh – PABP poly(A) RNA binding inhibitors, primary screen, biochemical, fluorescence polarization, uHTS. Polyadenylate-binding protein 1 (Homo sapiens), P11940. inhibition, % at 35 µM. actives 1% (n = 290,000). AID 2014, 2009;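 active = 50% or more with normal probe brightness, or confirmed in later tests; inconclusive = above 50% with abnormal brightness, or retests that disagree; inactive = below 50% or failed in later tests; about a fifth of its hits are not listed in these tables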;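 also: calls also rest on retests at 20 µM and on dose response follow-up; controls were probe without protein and protein plus probe with vehicle; some compounds called inactive have numbers as strong as hits; many hits fall short of the cut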
eIF4H FP inh – human eIF4H binding inhibitors, primary screen, translation initiation inhibitor project, biochemical, uHTS, fluorescence polarization | Eukaryotic translation initiation factor 4H (Homo sapiens), Q15056 | eIF4H fluorescence polarization binding assay | inhibition, % at 35 µM | actives 0.94% (n = 290,000) | AID 2012, 2009;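 active = 50% or more with normal probe brightness, or confirmed in later tests; inconclusive = above 50% with abnormal brightness, or retests that disagree; inactive = below 50% or failed in later tests; about a fifth of its hits are not listed in these tables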;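 also: calls also rest on retests at 20 µM and on dose response follow-up; 0% = protein and probe with vehicle and 100% = probe without protein; strong numbers were not always called active; many hits fall short of the cut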
HIV Env fusion – inhibitors of HIV-1 Env-driven cell-cell fusion, primary screen, HeLa-JRFL effector, CEM21 target cells, luciferase | inhibition, % at 12.3 µM | actives 1.1% (n = 360,000);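 active = mean replicate inhibition score of at least 50 and every replicate individually at or above 50; inconclusive = only one of the two criteria met; inactive = mean below 50 and not all replicates reaching 50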;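 also: 0% = plate neutral controls and 100% = maraviroc near 300 nM; one replicate is shown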
eIF4H FP inh retest – recorded beside eIF4H FP inh, whose call it bears; inhibition, %; compound at 20 µM; confirmation average;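 mean of two retest wells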
PABP FP inh retest – also measured in PABP FP inh; calls as there; inhibition, %; compound at 20 µM; confirmation repeats;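 mean of two retest wells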
MT1-MMP act inh RFP – also measured in MT1-MMP act inh; calls as there; RFP signal change, %; measured here: RFP expression control read;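 0 = vehicle wells; hits needed this value within 50% of zero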
The depositor's hits bear a star; i = inactive; ? = inconclusive; . = not tested or not shown; & = joins results of further samples.

SMILES | Rce1 inh | MT1-MMP act inh | MT1-MMP act inh RFP | CSC inhib | Yeast UUG start | PABP FP inh | eIF4H FP inh | HIV Env fusion | others
O=C(N/N=C/c1ccncc1)C1CC1C(=O)N/N=C/c1ccncc1 (stereo not given) | i | 5 | 6 | -2 | . | 14 | 1 | .
CC(C)C(NS(=O)(=O)c1ccc2c(c1)oc(=O)n2C)C(=O)N1CCN(c2ccccc2F)CC1 (stereo not given) | . | -1 | 1 | -23 | -13 | 5 | 2 | 16
COc1cccc(N/N=C/c2cccc(Br)c2O)c1 | i | 4 | 3 | 44 | -17 | -1 | -2 | -28
Cc1ccc(C)c(SCC(=O)Nc2ccc(S(=O)(=O)Nc3ncccn3)cc2)c1 | i | -5 | 4 | -3 | . | 0 | 4 | 9
CCCNC(=O)Cn1cnc([N+](=O)[O-])n1 | i | 4 | 2 | 1 | . | -3 | -9 | -2
CCC(Sc1nc2n[nH]c(C)c2c(=N)n1-c1cc(Cl)ccc1C)C(=O)N1CCOCC1 (stereo not given) | i | -1 | -9 | 4 | -7 | 4 | 8 | .
CCOC(=O)N1CCC(NC(=O)C2CCN(S(=O)(=O)N3CCC(C)CC3)CC2)CC1 | . | 4 | -4 | -1 | . | 1 | -13 | .
COc1ccc(CNC(=O)C2CCN(C(=O)c3sccc3-n3cccc3)CC2)cc1 | i | 0 | -1 | 15 | -2 | -7 | -4 | -7
Cc1ccc(-c2nc(-c3ccccn3)no2)cc1 | i | 1 | -3 | 70 | -93 | -2 | -6 | .
Cc1c(Cl)cccc1NC(=S)NCC(O)c1ccccc1 (stereo not given) | i | 6 | 1 | -10 | -30 | -6 | -5 | -29
Cc1ccc(OCC(=O)N2CCN(S(C)(=O)=O)CC2)cc1 | i | 3 | 4 | -8 | . | -11 | -10 | -13
COc1ccc(CNc2ccc3c(c2)ncn3C)cc1OC | i | -2 | -4 | -16 | -21 | -2 | -9 | -42
O=C(Cn1nnc2ccccc21)NC1CCCCC1 | i | 1 | -1 | 3 | -20 | 0 | 0 | -28
O=C(COC(=O)c1cccc(Cl)c1)NCCN1C(=O)CSC1=O | i | 0 | 4 | -16 | . | ? | -9 | .
O=C(CN1C(=O)NC2(CCCCCC2)C1=O)NCc1ccc(F)cc1 | . | -2 | 0 | -9 | -1 | . | . | -1
CC(C)(C)c1ccc(C(=O)Nc2ccccc2NC(=O)c2ccco2)cc1 | i | 4 | -1 | 5 | -2 | 5 | 2 | .
O=S(=O)(Nc1cccc(-n2cnnn2)c1)c1ccc(Cl)nc1 | i | 1 | 6 | -8 | -9 | -8 | -9 | 14
CCC(C)(C)n1nnnc1C(c1ccccn1)N1CCCCC1 (stereo not given) | i | 3 | 4 | 8 | -10 | 4 | -1 | .
COc1ccc2c(-c3ccccc3)cc(=S)[nH]c2c1 | i | 2 | -5 | 4 | -30 | 4 | -2 | 13
COc1cc(C)nc(N2CCC(C(=O)NCC3CCCO3)CC2)n1 (stereo not given) | i | 2 | 3 | 7 | -20 | . | . | -11
CCC(C)[C@H](NC(=O)c1cn(CC)c2cc3c(cc2c1=O)OCO3)C(=O)NCCCn1ccnc1 (stereo not given in full) | i | 2 | 1 | 9 | -10 | 1 | -1 | -5
O=C1CC(N(O)c2ccccc2)C(=O)N1c1ccc(Cl)c(Cl)c1 (stereo not given) | i | 1 | 2 | 2 | -14 | 2 | -5 | -12
Cc1ccc(C(=O)n2c(-c3ccccc3)cnc2SCC(=O)Nc2ccc(C)cc2C)cc1 | i | -7 | -4 | 3 | . | 29 | 2 | 15
Oc1ccc(COCc2ccccc2)c2cccnc12 | i | 2 | -3 | 73 | 0&-51 | 17 | 13 | .

Three records picked at random from the list so far, as already listed:
SMILES | Rce1 inh | MT1-MMP act inh | MT1-MMP act inh RFP | CSC inhib | Yeast UUG start | PABP FP inh | eIF4H FP inh | HIV Env fusion | others
O=C(CN1C(=O)NC2(CCCCCC2)C1=O)NCc1ccc(F)cc1 | . | -2 | 0 | -9 | -1 | . | . | -1
CC(C)(C)c1ccc(C(=O)Nc2ccccc2NC(=O)c2ccco2)cc1 | i | 4 | -1 | 5 | -2 | 5 | 2 | .
CCC(C)(C)n1nnnc1C(c1ccccn1)N1CCCCC1 (stereo not given) | i | 3 | 4 | 8 | -10 | 4 | -1 | .

(continued)
SMILES | Rce1 inh | MT1-MMP act inh | MT1-MMP act inh RFP | CSC inhib | Yeast UUG start | PABP FP inh | eIF4H FP inh | HIV Env fusion | others
O=C1NN(c2ccc(Cl)c(Cl)c2)C(=O)/C1=C/c1ccc(-c2ccccc2C(=O)O)o1 | i | -6 | -6 | 0 | -4 | 64* | 40* | -14 | eIF4H FP inh retest=88*;PABP FP inh retest=93*
OCCC1CN(Cc2ccc3nonc3c2)CCN1Cc1ccsc1 (stereo not given) | i | 2 | 3 | 0 | . | -2 | -4 | 17
CCOC(=O)CSc1nc2cc(S(=O)(=O)Nc3ccccc3OC)ccc2o1 | i | 4 | 4 | 1 | -1 | 7 | 8 | .
CC(C)(O)C#Cc1ccc(C(=O)NCCC(=O)O)s1 | i | -3 | -2 | -18 | . | 4 | -2 | 0
CCOC(=O)CC1C(=O)NCCN1S(=O)(=O)c1ccc(Cl)c(Cl)c1 (stereo not given) | . | -4 | 1 | -4 | -14 | -16 | -9 | -59
CC(NC(=O)CCc1nnc(-c2ccccc2)o1)c1ccccc1 (stereo not given) | i | -1 | 4 | -5 | -20 | 8 | 6 | -22
Cc1ccc(OCC(=O)NC2=NCCS2)cc1 | i | -1 | 5 | 4 | -28 | 5 | 4 | .
CC(C)(C)c1cc(N2CCOCC2)n2ncc(-c3ccc(Cl)cc3)c2n1 | i | -6 | -11 | 13 | -19 | -4 | 0 | 0
COc1ccc(OC)c(NC(=O)CN(C)S(=O)(=O)c2ccc3nc(C)sc3c2)c1 | i | -5 | 0 | 5 | 7 | -3 | 1 | 24
Cc1cccc(C)c1Nc1nnc(SC(C)C(=O)Nc2c(C)n(C)n(-c3ccccc3)c2=O)s1 (stereo not given) | . | -1 | -1 | -10 | . | -4 | -1 | 7
CC(C)NC(=O)C1=NN(c2ccccc2)C(=O)CC1 | i | 3 | 4 | -8 | 2 | -10 | -8 | 4
O=C(COc1cc(Cl)c(Cl)cc1Cl)NCCN1CCOCC1 | i | 3 | 1 | -12 | -12 | 2 | -2 | 16
O=[N+]([O-])c1cccc(N(CC2CO2)S(=O)(=O)c2ccccc2)c1 (stereo not given) | i | 1 | 1 | . | -11 | 2 | -4 | -1
CCOC(=O)C1CCCCN1Cc1ccccc1C(F)(F)F (stereo not given) | i | -4 | 4 | -18 | -15 | 18 | 16 | 25
Cc1ccccc1NC(=O)CSc1nnc2ccc(-c3cccnc3)nn12 | i | 0 | 2 | 10 | -27 | . | . | .
Cc1cccc(-n2c(SCN3C(=O)c4ccccc4C3=O)nc3ccccc3c2=O)c1 | . | . | . | . | . | 12 | -5 | 3
CC(=O)c1ccc(O)c(CSC2=NCCS2)c1 | i | -3 | -1 | 4 | . | -6 | 2 | 1
O=C(N/N=C/c1ccc[nH]1)c1cccc([N+](=O)[O-])c1 | i | 5 | 6 | -27 | . | -2 | -2 | -13
CC(C)C(OC(=O)c1cccs1)C(=O)NCc1ccc(F)cc1 (stereo not given) | i | 1 | 3 | . | -15 | 22 | -19 | 21
COc1ccccc1NC(=O)c1cc(N2C(=O)C3C4CCC(C4)C3C2=O)ccc1Cl (stereo not given) | i | -1 | -3 | -18 | -21 | 2 | -5 | 10
O=C(Cn1ncc2c([nH]c3ccccc32)c1=O)NCCc1ccccc1 | i | . | . | -15 | -2 | 2 | -5 | -2
COC(=O)c1[nH]c(=O)c2ccccc2c1OCc1ccccc1 | i | 4 | -5 | -11 | -8 | 4 | 3 | -18
CCN1C(=O)/C(=C2/C=CC=CN2C)SC1=S | i | 7 | 5 | 5 | -11 | 0 | 1 | -46
COc1ccc(OCc2cc(C(=O)N(C)Cc3cc(C)no3)no2)c(Cl)c1 | i | -1 | 4 | -9 | 5 | -3 | -15 | -41
C/C(=N\NC(=O)c1nn(C)c(C)c1Br)c1ccc(NC(=O)c2ccoc2C)cc1 | i | 3 | 0 | 0 | . | 4 | 0 | .
COc1cccc(C(=O)OCC(=O)Nc2ccc3c(c2)OCCO3)c1 | . | -2 | 3 | -20 | -15 | . | . | -2
O=S(=O)(Oc1ccccc1N1CCCCC1)c1ccccc1 | i | 0 | -1 | 6 | -7 | -3 | -2 | 37
Nn1c(Cc2cccc3ccccc23)nnc1SCc1ccccc1 | i | -1 | -2 | 4 | -6 | 3 | 3 | 12
CC(C)CCNC(=O)c1ccc(CSCc2cccc(F)c2)o1 | i | -1 | 3 | 24 | -3 | 14 | -10 | -52
Cc1ccc(S(=O)(=O)N2CCN(S(=O)(=O)N(C)C)CC2)c(C)c1 | i | -1 | -8 | 0 | -13 | -1 | -10 | .
CCOCCCNC(=O)C1CCN(S(=O)(=O)N2CC(C)CC(C)C2)CC1 (stereo not given) | . | 0 | 3 | 5 | -11 | -4 | 1 | .
Cc1cc(C(=O)CN2CCN(CC(=O)Nc3ccc(F)cc3)CC2)c(C)n1C1CC1 | . | -2 | 1 | 0 | -8 | . | . | 23
Cn1nc(NC(=O)CC(C)(C)CC(=O)O)c2ccccc21 | i | -4 | -1 | 13 | -8 | 3 | 0 | 4
N#CCSc1ccccc1NC(=O)COC(=O)C1CCN(C(=O)c2ccc(Cl)cc2)CC1 | . | 2 | 5 | . | -10 | . | . | 21
O=C(CSc1n[nH]c(-c2cccs2)n1)N1CCN(S(=O)(=O)c2ccccc2)CC1 | i | 1 | 3 | 11 | -4 | -2 | -1 | -8
Cc1ccc(C(=O)N2CCC3(CC2)NCCc2[nH]cnc23)cc1 | i | -1 | 3 | -10 | -5 | 5 | 18 | 7
COc1ccc(Br)cc1/C=C(\C(=O)O)c1ccc(S(=O)(=O)N2CCCC2)s1 | . | 2 | 3 | 13 | 0 | . | . | 1
Cc1ccc(NC(=O)COC(=O)/C=C/c2c(C)nn(-c3ccc(F)cc3)c2Cl)cc1F | i | 0 | -5 | 7 | -16 | 7 | -6 | 23
COC(=O)CC1COc2ccccc2N1C(=O)/C=C/c1ccccc1 (stereo not given) | i | 4 | -1 | -1 | 1 | 1 | -4 | -5
CC(=O)CSc1nnc2c3ccccc3nc(C(C)(C)C)n12 | i | 1 | 5 | -13 | -15 | 3 | -7 | 9
Cc1ccc(S(=O)(=O)N2CCC[C@H]2C(=O)OCC(=O)Nc2ccc3c(c2)OCO3)cc1 | . | -3 | 4 | -3 | 2 | . | . | .
C/C=C(\C)C(=O)NCCN1C2=NC[C@@H](Cc3ccccc3)N2C[C@@H]1Cc1ccc(OC)cc1 | i | 1 | 4 | 6 | 4 | . | . | -73
CC(=O)N1CCc2cc(S(=O)(=O)CCC(=O)NCCc3ccc(Cl)cc3)ccc21 | i | 1 | -4 | . | -13 | -1 | -4 | 20
